CtBP-E1A inh: blocks the CtBP interaction with E1A; AlphaScreen GST-E1A/His-CtBP binding, 1536-well; stronger effect = lower value; control for the full effect not named in the record; actives 0.49% (n = 340,000); activity change, % (test concentration not listed); in the data active means activity change below about -65%; inconclusive means about -30% to -65%; inactive means above about -30%; further: on the % scale 0 is the no-effect control and ±100 the full control effect; compound concentration not given in the record
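Steps: dispense buffer (Tris pH 8.0, NaCl 300 mM, TCEP 1 mM, BSA, Tween 20); add 5X protein mix (GST-E1A, His-CtBP, 125 nM each); pin 23 nL compound; 2 h at 37 °C, dark; add 5X beads (50 ug/mL); 1 h; read.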
PINK1 expr mod: modulators of PINK1 expression; PINK1 immunofluorescence, high-content cytometry, 24 h; Potency, µM (titrated, usually from 76.6 µM), inactives show at the top dose activation (PINK1 increase), hits mostly activators; actives 0.2% (n = 410,000); active = well fitted activation curve with a large enough effect; inconclusive = small, poorly fitted or top-dose-only effect; inactive = flat fitted curve, though single readings scatter; cell line not stated here;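 further: potency means the concentration at half of the fitted maximal effect; % of control where 0% means no effect; nearly all actives have a fitted effect of over 65% in size; a mitochondrial uncoupler was the plate control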
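Measures PINK1 amount and localization on or inside mitochondria by immunofluorescence. Stable cells get compounds at 5 concentrations for 24 hours before fixation and staining; CCCP controls included.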
Six1-Eya2 blk: inhibitors of human Six1/Eya2 interaction; Q15475+O00167; AlphaScreen GST-Six1/His-Eya2 binding, biochemical; stronger effect = lower value; control for the full effect not named in the record; activity change, % (concentration not given with the values); actives 0.56% (n = 360,000); in the data active = activity change below about -65%; inconclusive = about -30% to -65%; inactive = above about -30%; further: on the % scale 0 is the no-effect control and ±100 the full control effect
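Compounds are tested against tagged Six1 and Eya2 proteins bridged by glutathione donor and nickel acceptor beads; after a one-hour incubation at 37 °C without light, AlphaScreen emission is recorded.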
D2 ag: activates the human D2 dopamine receptor. DiscoveRx PathHunter D2 beta-arrestin, luminescence, 90 min; 100% = 57 uM dopamine signal. activation, % (test concentration not listed). actives 0.084% (n = 360,000). AID 624465; in the data active = activation above about 40%; inconclusive = about 15% to 40%; inactive = below about 15%; further: compound concentration not given in the record; the text of the record calls up to 30% inactive
Target sequence (P14416 whole entry, looked up): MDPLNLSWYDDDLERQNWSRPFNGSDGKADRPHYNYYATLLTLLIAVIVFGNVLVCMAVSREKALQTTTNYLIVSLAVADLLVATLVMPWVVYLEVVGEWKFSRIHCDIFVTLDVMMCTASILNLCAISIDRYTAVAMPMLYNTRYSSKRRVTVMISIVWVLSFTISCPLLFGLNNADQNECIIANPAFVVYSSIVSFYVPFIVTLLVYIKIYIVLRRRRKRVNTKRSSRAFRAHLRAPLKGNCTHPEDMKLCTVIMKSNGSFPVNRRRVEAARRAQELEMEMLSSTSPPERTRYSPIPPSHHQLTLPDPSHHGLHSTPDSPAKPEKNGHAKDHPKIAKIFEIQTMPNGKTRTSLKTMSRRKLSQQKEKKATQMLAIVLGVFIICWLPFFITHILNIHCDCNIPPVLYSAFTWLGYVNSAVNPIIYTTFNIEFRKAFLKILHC
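DiscoveRx PathHunter D2 beta-arrestin cells (2,100/well) attached overnight, then compound-stimulated 90 min at 37 C in HBSS/10 mM HEPES/0.1% Tween-20 buffer; beta-galactosidase complementation read by luminescence after 1 h at ambient temperature. Dopamine 57 uM final (EC100) as control.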
TRPML1 agonist: human mucolipin-1 channel agonism. Q9GZU1. TRPML1-expressing cells, Ca2+ dye fluorescence, FDSS; host cell line not named in the record; reference of the full effect not given here. activation, % (no concentration beside the values). actives 0.12% (n = 410,000); in the data active = activation above about 50%; inconclusive = about 30% to 50%; inactive = below about 30%; further: 0% is about no effect; the text of the record puts the active cut at 80%
Target sequence (Q9GZU1 whole entry, looked up): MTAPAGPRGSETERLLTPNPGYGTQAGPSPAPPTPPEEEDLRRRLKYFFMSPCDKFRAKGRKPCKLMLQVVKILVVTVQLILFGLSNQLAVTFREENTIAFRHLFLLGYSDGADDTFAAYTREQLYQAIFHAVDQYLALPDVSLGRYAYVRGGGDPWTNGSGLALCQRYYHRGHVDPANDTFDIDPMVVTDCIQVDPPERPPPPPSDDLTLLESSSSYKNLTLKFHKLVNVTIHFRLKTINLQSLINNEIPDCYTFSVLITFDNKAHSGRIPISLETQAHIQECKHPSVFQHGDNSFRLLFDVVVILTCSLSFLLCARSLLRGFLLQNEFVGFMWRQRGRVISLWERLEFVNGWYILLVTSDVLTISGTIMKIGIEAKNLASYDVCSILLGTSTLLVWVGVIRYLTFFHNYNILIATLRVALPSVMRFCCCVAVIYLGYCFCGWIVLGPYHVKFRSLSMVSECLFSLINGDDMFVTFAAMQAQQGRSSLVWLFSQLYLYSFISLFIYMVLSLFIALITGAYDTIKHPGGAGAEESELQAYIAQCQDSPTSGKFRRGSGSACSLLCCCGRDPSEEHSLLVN
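Calcium fluorescence on an FDSS kinetic reader gave the read-out. Tet-induced TRPML1-DL cells were plated overnight, dye-loaded (Ca8 with quencher, 45-90 min, room temperature, dark), then read 110 s after compound addition, and again 110 s after 4uM final 54-4 (EC80).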
TRPML1 inh: inhibitors of human TRPML1 channel; Q9GZU1; TRPML1-inducible cells, Ca2+ dye fluorescence, FDSS; stronger effect = lower value; inhibition of EC80 agonist-evoked calcium signal; activity change, negative = inhibition, % (concentration not given with the values); actives 0.02% (n = 390,000); in the data active means activity change below about -50%; inconclusive means about -30% to -50%; inactive means above about -30%;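 further: stimulus is agonist 54-4 at its EC80 concentration; on the % scale 0 is the no-effect control and ±100 the full control effect; compound concentration not given in the record; the text of the record puts the active cut at -80%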
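Calcium fluorescence in TRPML1-DL cells induced overnight with Tet: a 110 s read after compound pin addition, then a 110 s antagonist read after challenge with 54-4 at 4 uM final (EC80).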
Active calls of the source: *; ? = inconclusive; . = not tested or not shown; & = joins results of further samples; [ ] = another dose, or the depositor's remark.

Compound	PINK1 expr mod	TRPML1 inh	D2 ag	CtBP-E1A inh	Six1-Eya2 blk	TRPML1 agonist
CCCC1=C(C(=O)OCC)C(c2ccc(F)cc2)n2ncnc2N1 (stereo unspecified)	-0.2%	9	-5.2	0	-3	-0.8
COCCNC(=S)Nc1ccc2nc(N3CCN(C)CC3)cc(C)c2c1	-1.1%	49	-3.0	-19	2	0.0
CSc1ccc(Cn2nnc(C(=O)Nc3ccc(C)c(C)c3)c2N)cc1	4.2%	9	7.6	-24	-6	1.2
O=C(NC1CCCCC1)c1ccc(Cn2cc(Cl)cn2)cc1	-1.9%	-2	-2.0	1	1	5.0
O=C(CC1C(=O)NCCN1Cc1ccc(F)c(F)c1)NCCn1cccn1 (stereo unspecified)	-1.7%	2	-2.4	7	-6	-0.4
Cc1ccc(CN2C(=O)CN(C3CCCCCC3)C(=O)C2c2ccc(F)cc2)cc1 (stereo unspecified)	1.3%	12	.	.	.	0.5
CC(C)c1ccc(Nc2c([N+](=O)[O-])c(=O)n(C)c3ccccc23)cc1	0.5%	15	-1.4	-28	-18	0.0
CCOC(=O)COc1c(Br)cc(C2NC(=O)NC(C)=C2C(C)=O)cc1OC (stereo unspecified)	-1.6%	-12	1.4	4	9	0.1
CC(=O)Nc1ccc(-n2nnnc2SCC(=O)NCc2cccs2)cc1	-1.5%	13	-1.7	.	1	2.4
COc1ccc(/C=N/N=C2/NC(=O)CC(C(=O)O)S2)cc1 (stereo unspecified)	1.5%	-26	0.4	17	5	-0.7
Cc1cc(C)c2c(n1)sc1c(N3CCCCC3)ncnc12	2.0%	56	-1.3	11	1	0.4
COc1cccc(NC(=O)N2CCC(NC(=O)C(Cc3ccccc3OC)NC(C)=O)CC2)c1 (stereo unspecified)	1.2%	1	-1.5	-8	0	-0.3
COc1ccc(NC(=O)c2cccc(S(=O)(=O)N3CCOCC3)c2)cc1	2.3%	-7	-2.4	0	1	0.1
CCc1ccc(NC(=O)Cn2c(=O)n(-c3cc(C)cc(C)c3)c(=O)c3oc4ccccc4c32)cc1	-0.6%	17	.	.	.	0.9
O=C(NN1C(=O)C2CCCCC2C1=O)c1ccco1 (stereo unspecified)	2.8%	0	-3.0	.	-2	-0.1
COc1cccc(NC(=O)C2CCN(C(=O)NC3CCCCC3)CC2)c1	-0.4%	0	-0.9	16	11	-1.8
CCCSc1cc(N)cc([N+](=O)[O-])c1	3.9%	1	-0.6	-3	10	0.2
COc1ccccc1-c1ccnc2[nH]n(-c3ccccc3)c(=O)c12	2.2%	-1	.	.	.	-0.6
COc1ccc(CN2CCCC(CO)(Cc3ccc(F)cc3F)C2)cc1 (stereo unspecified)	3.7%	9	-2.2	0	3	0.3
Cc1cc(C)n2nc(CNS(=O)(=O)c3ccccc3)nc2n1	5.8%	5	.	.	.	0.5
C=CCN=C1S/C(=C/c2cccc([N+](=O)[O-])c2)C(=O)N1CC=C	1.5%	53	-2.7	-13	-20	3.9
CO/C=C\C=C/c1nnn(-c2ccc(Cl)cc2)n1	4.4%	3	3.6	3	-9	-0.1
CC(C)O/N=C1\C(=O)N(c2ccccc2)c2ccccc21	-2.6%	23	-0.7	5	10	4.8
Cc1ccc(SCC(=O)OCC(=O)N2CCN(C(=O)c3ccco3)CC2)c(C)c1	-0.4%	14	2.0	-16	13	-0.1
COc1cccc(C2CC(c3cccc(NS(C)(=O)=O)c3)=NN2C(=O)c2ccccc2)c1OC (stereo unspecified)	0.9%	31	-3.9	-3	-10	-0.3
CCOC1=C2CN(S(=O)(=O)c3ccc(C)cc3)[C@H](c3ccccc3)C[C@@H]2N(S(=O)(=O)c2ccc(C)cc2)[C@H](c2ccccc2)C1	0.8%	-14	-4.4	8	2	-0.1
Cn1c(CO)nc2cc(N)ccc21	0.7%[38.3 µM]	-11	-2.2	-18	1	1.0
CCSc1nnc2ccc(-c3cccs3)nn12	-1.5%	31	-0.7	-29	-19	1.3
CC(C)(C)c1cc(NC(=O)COC(=O)c2ccc(O)cc2O)n(-c2ccccc2)n1	0.4%	-6	-2.4	5	-1	0.5
CCC(C)[C@H](NC(=O)Nc1ccccc1F)C(=O)OC (stereo partly specified)	-0.1%	23	1.6	-2	8	-0.7
Cc1nnc(SCC(=O)Nc2ccc(S(N)(=O)=O)cc2)n(N)c1=O	1.5%	35	0.7	-11	-18	0.3
CCCCNC(=O)C1C2C=CC3(CN(Cc4ccccc4Cl)C(=O)C13)O2 (stereo unspecified)	2.3%	7	-1.7	-2	-1	-0.7
COc1cc2c(cc1OC)-c1nc3ccccc3c(=O)n1C(C)(C)C2	1.8%[38.3 µM]	-11	1.9	-9	-3	1.5
Cc1cccc([C@@H](NC(=O)OC(C)(C)C)C(=O)OC(C)(C)C)c1	2.4%	18	0.8	7	0	-0.3
FC(F)Oc1ccc(NC(=S)NN2CCOCC2)cc1	-2.8%	-6	-0.1	-6	2	4.6
CCCC(=NC(C)CC)C1=C(O)CC(c2ccccc2)CC1=O (stereo unspecified)	14%	2	-2.5	0	-7	-0.5
Cc1c(C)c(C)c(CO/N=C/c2cccs2)c(C)c1C	-1.0%	4	-2.2	-5	-1	2.1
CCOc1ccccc1NC(=O)Cn1c(=O)oc2ccccc21	-0.4%&0.3%	-10&2	-3.1	-4	3	0.5&1.9
Cc1ccc(OCC(=O)Nc2ccccc2N2CCCC2)c(C)c1	?	10	5.8	-8	?	-0.4
Cc1ccc2c(c1)CCCN2C(=O)CSc1ccccc1	-1.2%	1	-1.4	7	6	0.5
O=[N+]([O-])c1cc(Br)c2c(c1)CCN2	2.2%	14	-5.3	4	-15	-0.5
COc1cccc(C2=Cc3ccc(F)cc3C(CC(C)=O)N2c2ccc(C#CC3(O)CCCCC3)cc2)c1 (stereo unspecified)	3.0%	.	.	11	-2	0.6
Cc1cc(C)cc(Oc2coc3cc(O)ccc3c2=O)c1	1.2%	1	2.2	5	0	1.1
O=C(C=Cc1ccccc1F)c1ccccc1	-1.0%	.	-3.8	6	9	1.0
Cc1nnc(SCc2cc(=O)[nH]c(N3CCN(C)CC3)n2)s1	-0.1%	-6	-2.9	10	1	0.5
CSc1n[nH]c(-c2ccc(C(F)(F)F)cc2)n1	2.2%	-12	-5.8	11	-6	0.1
CCNC(=O)COn1c(SCC(=O)NCC)nc2ccccc2c1=O	0.1%	0	-4.5	7	-1	-0.3
Cc1noc(C)c1S(=O)(=O)N(C)C[C@H]1Oc2ccc(NS(=O)(=O)c3cn(C)cn3)cc2C(=O)N([C@H](C)CO)C[C@@H]1C	0.4%	-6	-1.3	-21	10	-0.4
COc1ccc(-c2cc(=O)c3cc(OCC(=O)OC(C)C)ccc3o2)cc1	0.5%	-6	.	.	.	1.5
COc1ccccc1NC(=O)c1ccc(NS(C)(=O)=O)cc1	3.6%[38.3 µM]	2	3.8	-3	5	0.1
CNC(=O)N(O)C1N(/N=C/c2ccccc2OC)C(=S)SC1(C)C (stereo unspecified)	-0.7%	0	-3.1	0	6	-0.7
CN(CC1CCCO1)S(=O)(=O)c1ccc(C(=O)Nc2nnc(-c3ccccc3)o2)cc1 (stereo unspecified)	0.8%	6	0.5	-18	-11	0.2
CCCN1CCCc2cc(CN(CCCN3CCOCC3)C(=O)Nc3ccc(OCC)cc3)ccc21	1.1%	2&30	0.5	-9	?	2.0&1.7
CC1CCCCC1NC(=O)COC(=O)CNC(=O)c1cccc(F)c1 (stereo unspecified)	-0.8%	3	-2.0	-2	2	1.1
O=C(NCc1ccccc1)c1ccc(Cn2cc(C(F)(F)F)ccc2=O)cc1	9.2%[38.3 µM]	-10	-1.4	3	5	-0.7
CCC(C)[C@H](NC(=O)NCCCN1CCOCC1)C(=O)OC (stereo partly specified)	6.7%[38.3 µM]	-24	-2.6	3	4	0.8

Later entries:
Compound	PINK1 expr mod	TRPML1 inh	D2 ag	CtBP-E1A inh	Six1-Eya2 blk	TRPML1 agonist
Cc1cc(C(=O)COC(=O)c2ccncc2)c(C)n1CCc1ccc(F)cc1	0.4%	-18	-1.3	0	-13	2.1
COc1ccc(Nc2nc(=O)c3cc([N+](=O)[O-])ccc3s2)cc1	0.6%	29	0.3	1	2	0.7
CCOc1ccc(NC2=NCC(=O)N2CCc2ccccc2)cc1	2.1%	13	-3.5	1	1	12
Cc1cc(C)n(-c2ccc(C(=O)C(C#N)c3nc4ccccc4n3C)cc2)n1 (stereo unspecified)	3.2%[38.3 µM]	17	-2.0	4	-2	-0.7
N#CC1=C(N)C(C#N)(C#N)C(c2ccncc2)C2CN(C(=O)OCc3ccccc3)CC=C12 (stereo unspecified)	2.6%	8	-13	-6	-23	1.1
COc1ccccc1N(CN1CCCC1=O)C(=O)c1c(F)cccc1Cl	0.6%[38.3 µM]	-2	-2.6	6	1	0.0
Nc1nnc(SCc2ccc3c(c2)OCO3)s1	-1.3%	7	-3.7	-4	-4	1.5
COc1ccc(CNC(=O)C2CCN(C(=O)c3cnn(-c4ccccc4)c3-n3cccc3)CC2)cc1	-0.4%	-1	.	.	.	1.6

Look-ups from the results shown:
COc1ccc(Nc2nc(=O)c3cc([N+](=O)[O-])ccc3s2)cc1 in PINK1 expr mod shows 0.6%
Cc1cc(C)n(-c2ccc(C(=O)C(C#N)c3nc4ccccc4n3C)cc2)n1 (stereo unspecified) in CtBP-E1A inh shows 4
COc1ccccc1N(CN1CCCC1=O)C(=O)c1c(F)cccc1Cl in TRPML1 inh shows -2

The list goes on.
Compound	PINK1 expr mod	TRPML1 inh	D2 ag	CtBP-E1A inh	Six1-Eya2 blk	TRPML1 agonist
COC(=O)C1C2CC3c4[nH]c5cc(OC)ccc5c4CCN3CC2CC(O)C1OC (stereo unspecified)	2.0%	.	5.2	-11	-14	.
CCOC(=O)C1=C(c2ccccc2)Nc2ncnn2C1c1cccc(OC)c1OC (stereo unspecified)	2.1%	10	-0.3	0	-1	0.2
CCN(CC)S(=O)(=O)c1ccc(/C=C/C(=O)OCC(=O)N(C(C)C)C(C)C)cc1	3.6%	-11	1.9	12	5	-0.8
COCCn1c(SCC(=O)NNC(=O)c2cc(Cl)ccc2OC)nnc1-c1ccncc1	-0.3%	15	-18	.	-7	-0.5
CC(=O)N1CCN(Cc2nc3cc(NC(=O)Nc4ccccc4)ccc3n2C)CC1	11%	-28	0.2	0	-6	0.7
CN1CCC(=NNC(=O)CN(c2cccc(Cl)c2)S(C)(=O)=O)CC1	-0.6%	15	-2.7	5	-5	-0.2

3 compounds from above, arranged by the value under Six1-Eya2 blk, low to high:
Molecule	PINK1 expr mod	TRPML1 inh	D2 ag	CtBP-E1A inh	Six1-Eya2 blk
N#CC1=C(N)C(C#N)(C#N)C(c2ccncc2)C2CN(C(=O)OCc3ccccc3)CC=C12 (stereo unspecified)	2.6%	8	-13	-6	-23
COc1ccccc1NC(=O)c1ccc(NS(C)(=O)=O)cc1	3.6%[38.3 µM]	2	3.8	-3	5
CCOC(=O)COc1c(Br)cc(C2NC(=O)NC(C)=C2C(C)=O)cc1OC (stereo unspecified)	-1.6%	-12	1.4	4	9

Bioassay records (PubChem BioAssay)
